High-throughput results from PubChem BioAssay.
ALR inh – inhibitors of human ALR sulfhydryl oxidase, primary screen, biochemical, H2O2 detection, HRP-luminol luminescence, single point; FAD-linked sulfhydryl oxidase ALR (Homo sapiens), P55789; purified ALR, DTT oxidation; inhibition, % (no concentration beside the values); 290,000 compounds, 3.8% hits; AID 485317, 2010;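 active = mean and each replicate at 75% or more; inconclusive = only one of the two met; inactive = neither met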;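 note: stock transfer was 7.5 nL into about 7.5 µL; 0% = neutral wells and 100% = wells with inactivated enzyme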
Target sequence (P55789 whole entry, looked up): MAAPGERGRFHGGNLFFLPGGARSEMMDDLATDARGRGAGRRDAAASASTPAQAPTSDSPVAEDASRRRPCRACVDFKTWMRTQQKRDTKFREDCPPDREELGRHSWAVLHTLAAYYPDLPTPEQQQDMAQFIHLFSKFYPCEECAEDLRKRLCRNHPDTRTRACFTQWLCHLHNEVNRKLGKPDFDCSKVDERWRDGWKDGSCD
LANA-H2A inh – blockers of LANA interaction with H2A/H2B – biochemical, FP readout, HTS, primary screen | cell-free LANA-H2A/H2B peptide, fluorescence polarization | inhibition, % (no concentration beside the values) | 320,000 compounds, 0.6% hits | Protein LANA1 (Human herpesvirus 8 type P (isolate GK18)), Q9QR71; in the data active = inhibition mostly above about 10%, no sharp cut-off; inactive = mostly below about 6.7%;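 note: stock transfer was 7.5 nL into about 10 µL; 0% = median of vehicle wells and 100% = median of positive control wells; one replicate is shown; the record names a cut of 25% in any replicate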
HNF4A DNA FP – change in binding of human HNF4A to DNA, primary screen, biochemical, fluorescence polarization, FITC-DNA. Hepatocyte nuclear factor 4-alpha (Homo sapiens), P41235. 1 h. activity change, % at 10 µM. 360,000 compounds, 0.3% hits. AID 1224865, 2016; in the data active = activity change above about 30%, passing the limit was not always enough;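 note: controls were the assay level and a saturating level of protein; the project sought stronger binding though the title names inhibitors; some compounds called inactive have numbers as strong as hits; positive values seem to mean higher polarization but the record does not say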
Target sequence (P41235 whole entry, looked up): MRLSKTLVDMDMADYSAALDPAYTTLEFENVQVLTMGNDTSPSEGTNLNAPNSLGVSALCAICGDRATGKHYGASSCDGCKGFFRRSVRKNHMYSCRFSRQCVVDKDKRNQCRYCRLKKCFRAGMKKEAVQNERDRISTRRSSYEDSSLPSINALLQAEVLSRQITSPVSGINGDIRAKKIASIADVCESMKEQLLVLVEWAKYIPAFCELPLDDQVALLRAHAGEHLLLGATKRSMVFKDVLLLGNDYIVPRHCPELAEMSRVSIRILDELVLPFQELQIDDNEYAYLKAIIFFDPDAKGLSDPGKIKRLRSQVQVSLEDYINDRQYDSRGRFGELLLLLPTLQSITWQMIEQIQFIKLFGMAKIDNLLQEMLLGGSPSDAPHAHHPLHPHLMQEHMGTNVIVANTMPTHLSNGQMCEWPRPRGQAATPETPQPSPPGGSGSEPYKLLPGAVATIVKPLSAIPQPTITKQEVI
RanGTP-Imp inh – inhibitors of RanGTP-importin-beta interaction, primary screen, biochemical, FRET, CFP-Ran, YFP-importin-beta, homogeneous. Ran GTPase (GTP-bound) - importin-beta complex. cell-free CFP-Ran/YFP-importin-beta FRET ratio. 300,000 compounds, 1.1% hits. inhibition, % (concentration not given with the values);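 active = most replicates above 15%; inconclusive = exactly half above 15%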;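 note: 0% = DMSO wells and 100% = Ran loaded with GDP instead of GTP; wells of about 40 µL received 100 nL stock; the first replicate is given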
Vif A3G – inhibitors of Vif binding to APOBEC3G peptide, primary screen, biochemical, TR-FRET, GST-Vif 1-94, biotin-A3G peptide, dose response retest (AID 1117319). TR-FRET GST-Vif / biotin-A3G peptide binding; higher % means a stronger effect; test concentration not given here; strong numbers were not always called active. one-dose inhibition, %; IC50 in µM for titrated hits. Virion infectivity factor (Human immunodeficiency virus type 1 group M subtype B (isolate …. 260,000 compounds, 0.57% hits;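 active = above the screen mean plus three standard deviations and confirmed in dose response; inconclusive = results disagree or hit not tested in dose response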;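 note: Vif residues 1-94 fused to GST binding biotinylated APOBEC3G peptide 110-148; 0% = full assay without inhibitor and 100% = GST in place of GST-Vif; retest series ran down from 100 µM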
Calb FLC – C. albicans growth inhibition with fluconazole, primary screen, CaCi-2 strain, Alamar Blue fluorescence. C. albicans CaCi-2 (fluconazole-resistant clinical isolate) + fluconazole, 48 h. growth inhibition, % (concentration not given with the values). 300,000 compounds, 0.57% hits. AID 1979, 2009;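 active = most replicates above 75%; inconclusive = exactly half above 75%; inactive = most below 75%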;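 note: all wells also contain fluconazole at 8 µg/ml as a sub-toxic cotreatment; 0% = median of DMSO wells and 100% = median of geldanamycin control wells; wells of about 8 µL received 7.5 nL stock; the first replicate is given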
B2AR ag – beta2AR agonists driving receptor internalization, primary screen, cell-based, FAP fluorogen, flow cytometry | Beta-2 adrenergic receptor (Homo sapiens), P07550 | Am2.2-beta2AR cells; reference of the scale not given here | response, % (concentration not given with the values) | 340,000 compounds, 0.43% hits;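 active = response above a set limit, near 3 SD of response in nonfluorescent compounds, cut at about 42% in these data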;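 note: stock transfer was 100 nL into about 11 µL; a reference agonist was the positive control; negative values mostly stem from fluorescent compounds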
Target sequence (P07550 whole entry, looked up): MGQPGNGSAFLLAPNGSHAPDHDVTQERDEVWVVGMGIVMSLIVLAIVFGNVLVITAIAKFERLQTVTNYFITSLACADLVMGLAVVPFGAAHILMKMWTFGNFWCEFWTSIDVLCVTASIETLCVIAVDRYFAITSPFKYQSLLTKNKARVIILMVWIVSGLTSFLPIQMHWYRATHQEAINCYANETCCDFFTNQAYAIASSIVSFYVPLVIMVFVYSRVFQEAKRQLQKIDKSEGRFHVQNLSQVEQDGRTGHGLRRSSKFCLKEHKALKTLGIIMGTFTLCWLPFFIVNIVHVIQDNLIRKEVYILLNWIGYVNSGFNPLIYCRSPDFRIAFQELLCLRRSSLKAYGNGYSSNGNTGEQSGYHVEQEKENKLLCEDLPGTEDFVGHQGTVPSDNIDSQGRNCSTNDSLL
* marks the source's active call; other numbers are inactive results; ? = inconclusive; / = not tested or not shown; & = joins results of further samples. Rows are unselected (roughly 6.3% active in at least one column).

SMILES | ALR inh | LANA-H2A inh | HNF4A DNA FP | RanGTP-Imp inh | Vif A3G | Calb FLC | B2AR ag
CCOC(=O)N1CCC(NC(=O)CS(=O)(=O)Cc2nc(-c3ccc(C)cc3)oc2C)CC1 | 3 | -3.4 | 5.0 | -1.3 | -8% | -1 | -8
C[C@H](NC(=O)CCCOc1ccc(Cl)cc1Cl)c1nnc2ccccn12 | -1 | 5.0 | -3.2 | -0.7 | / | -1 | -4
COc1ccc(CNC(=O)CSc2nnc3nc(C)cc(C)n23)cc1OC | -2 | -7.0 | -1.6 | 0.3 | 5% | -5 | -103
O=C(NCCCn1ccnc1)c1ccc(Br)s1 | -12 | 1.1 | -4.4 | 1.0 | 2% | 25 | 0
CN(CCc1ccccc1)C(=O)c1cccc(NC(=O)Cc2cccc(NC(=O)C3CCCN(C(=O)C4CCC4)C3)c2)c1 (centres undefined) | / | / | -1.8 | / | -2% | / | 5
CCN(CC)S(=O)(=O)c1cc(C(=O)OC)ccc1Cl | 9 | -1.0 | 2.5 | -1.8 | 6% | -7 | 2
O=C(NCCc1csc(-c2cccnc2)n1)c1ccc(Br)o1 | -1 | -1.0 | -0.8 | -1.7 | 12% | -9 | -3
N#CCCN(C(=O)COc1ccc(Cl)cc1Cl)c1ccccc1 | -4 | 5.8 | -1.0 | -2.4 | -1% | -4 | -9
Cc1ccc(C(=O)NN2C(=O)C3C4c5ccccc5C(c5ccccc54)C3C2=O)cc1 (centres undefined) | / | -0.3 | 1.4 | 3.5 | 0% | 1 | 6
CCc1nc2n[nH]c(N)c2c2c1CCCC2 | 21 | -0.9 | 2.7 | 1.0 | 6% | -2 | 0
CN(c1ccccc1)S(=O)(=O)c1cccc(NC(=O)CSc2nncs2)c1 | -1 | -4.3 | 1.1 | 4.6 | 3% | 0 | -3
Cc1nc(CCNC(=O)C2CCC(=O)N(CCc3cccc(F)c3)C2)sc1C (centres undefined) | -7 | 1.3 | -2.1 | -0.9 | 2% | 1 | 8
COc1ccccc1NC(=O)CNC(c1ccccc1)c1ccccc1 | 1 | 1.1 | -1.0 | -0.1 | / | 5 | -23
CN(CCC#N)C(=O)COc1ccc(Br)cc1Cl | -19 | 2.6 | 4.4 | 1.4 | -4% | 7 | -5
COCc1ccc(C(=O)N(C)CC2CCCN(CCc3ccccc3F)C2)o1 (centres undefined) | 1 | 3.1 | -2.7 | -3.8 | / | -19 | -4
CS(=O)(=O)N(CC(=O)Nc1ccc(Br)cc1F)C1CCCCC1 | -13 | 0.8 | 0.6 | 4.3 | / | -6 | -2
O=C(Nc1cccc([N+](=O)[O-])c1)C1C2CC/C=C\CCC21 (centres undefined) | -3 | 0.7 | 5.1 | -6.5 | / | 4 | -6
COc1ccc(CNC(=S)N2CCN(S(=O)(=O)c3cccc(F)c3)CC2)cc1 | -3 | -7.2 | 2.4 | 2.5 | 13% | -4 | 4
CC1CCN(C(=O)c2[nH]cnc2C(=O)NCC(=O)OC(C)(C)C)CC1 | -4 | 2.7 | -0.2 | -0.6 | / | -2 | -4
CCO/C([O-])=N/c1c[n+](N2CCOCC2)no1 | -6&2 | 0.9&-17 | -2.1&-1.0 | -1.6 | 3% | / | 0&-9
COc1ccc(Nc2nc3c(C)cccn3c(=O)c2C=NCc2ccccc2)cc1 | -6 | 0.8 | -1.8 | 0.7 | 2% | -1 | -5
Nc1ccccc1Sc1ccc(C(F)(F)F)cc1[N+](=O)[O-] | 19 | -5.6 | 1.6 | -2.2 | -12% | -7 | -2
CCOC(=O)C1CCN(C(=O)c2cc(C)n(C(C)(C)C)n2)CC1 | -15 | 2.6 | 0.7 | -5.3 | 2% | 6 | 3
N#CC1=C(N)C2=CCCC[C@H]2[C@H](c2cccc(F)c2)C1(C#N)C#N | 7 | -1.3 | -1.4 | -30 | 17% | -2 | 10
COc1cc(/C=C2\SC(=S)N(NS(=O)(=O)c3ccccc3)C2=O)ccc1O | / | -9.1 | 30 | -9.4 | -5% | 36 | -16
CCN(CC)CCNC(=O)c1cc([N+](=O)[O-])c(N(C)C)cc1OC | -8 | 3.9 | -1.6 | -1.7 | 12% | -8 | 1
O=C(/C=C/c1c(Cl)cccc1Cl)NCc1ccccc1 | 1 | -1.2 | 0.3 | 5.6 | 12% | 0 | 5
Cc1nccn1CCCNC(=O)CC1C(=O)NCCN1Cc1ccc(Cl)c(F)c1 (centres undefined) | -11 | -2.6 | -5.7 | -5.6 | / | 1 | 0
O=[N+]([O-])c1cccc(/C=N/Nc2nnc(-c3ccccc3)c(-c3ccccc3)n2)c1 | -12 | -4.4 | -2.4 | 3.8 | 11% | 2 | 2
NC(=O)CSc1oc(-c2ccco2)nc1S(=O)(=O)c1ccccc1 | -6 | 2.9 | 0.8 | 1.8 | / | 11 | 8
Cc1ccc(C(C)C)c(OCC(=O)NNC2=CC(=O)CC(C)(C)C2)c1 | 12 | -4.9 | 1.1 | 6.8 | 1% | 0 | -6
CCOCCCNC(=O)/C(C#N)=C/c1ccc(-c2ccc(S(=O)(=O)N3CCOCC3)cc2)o1 | -5 | -5.4 | 3.5 | ? | / | -5 | 22
O=C(c1cc2ccccc2oc1=O)N(Cc1ccc2c(c1)OCO2)Cc1ccco1 | -11 | -4.0 | 5.6 | ? | 7% | 7 | -8
CCCCC(=O)Nc1cc(C)c(NC(=O)c2cccs2)cn1 | -3 | -4.1 | 4.1 | 2.6 | -7% | -8 | -1
CC(=O)c1ccc(NC(=O)C2CC(=O)N(Cc3ccccc3)C2)cc1 (centres undefined) | -1 | 2.6 | 1.5 | 1.7 | 8% | 28 | 2
CC(NC(=O)c1ccco1)C(=O)N(C)Cc1ccc(C(F)(F)F)cc1 (centres undefined) | -2 | -2.9 | 4.3 | 6.3 | 1% | 2 | -4
Cc1ccc(-c2cccc(C(=O)NCCc3ccccc3)n2)c2ccccc12 | / | -2.8 | -5.9 | -2.6 | 2% | -7 | -3
CC(C)OCCCNC(=O)C(=O)N/N=C/c1ccc(OCc2ccccc2)cc1 | 0 | -0.3 | 1.6 | 0.9 | 6% | -2 | 0
Cc1c(NC(=O)COc2cccc(Br)c2)c(=O)n(-c2ccccc2)n1C | 0 | -6.9 | 1.4 | 4.1 | 1% | -7 | 0
CC12CC3CC(C)(C1)CC(Nc1nc(N4CCOCC4)nc4ccccc14)(C3)C2 | / | -3.4 | 2.3 | -0.3 | -1% | 11 | 0
CCOc1ccc2[nH]c(=O)c(CN(CCc3ccccc3)C(=O)N3CCCC3)cc2c1 | -12 | 3.4 | -0.8 | 3.1 | 28% | 2 | -15
CCc1ccc(CNC(=O)C2CCN(S(=O)(=O)N3CCC(C)CC3)CC2)cc1 | -1 | -2.5 | 0.9 | 1.1 | / | -6 | -9
COc1ccc(NS(=O)(=O)c2ccc(Cl)c(N)c2)cc1Br | -9 | -0.2 | -3.8 | -4.3 | 4% | -6 | 16
CCOC(=O)/C=C/C(=O)Nc1ccc(S(=O)(=O)Nc2c(C)cc(C)cc2C)cc1 | / | -1.9 | -1.8 | 4.4 | 9% | 22 | -5
CC(C)(C)NCC(O)COc1ccc(Br)cc1 (centres undefined) | -7 | 1.5 | 1.2 | -5.0 | ? | -5 | 2
CC(C)CC(=O)NC(=S)Nc1ccc(S(=O)(=O)N2CCN(C)CC2)cc1 | 24 | 1.0 | 0.6 | 3.6 | -5% | 9 | 3
Cc1ccc(S(=O)(=O)NCCCNC(=O)OCc2ccccc2)cc1 | / | / | 3.2 | / | -8% | / | -6
Cc1ccc(NC(=O)CSCC(=O)N=c2sccn2C)cc1 | -5 | -3.9 | -2.9 | -2.5 | 5% | 1 | -3
COc1ccc(N2CCN(c3ncnc4c3cnn4-c3ccc(C)cc3C)CC2)cc1 | 1 | -1.0 | 0.8 | -3.6 | 13%&-4% | -12 | 4
COc1ccc(Br)cc1C(=O)Nc1ccc(N2CCCC2)cc1 | -4 | -17 | 2.3 | -1.4 | -4% | -7 | 2

Rewritten with each value named: 2 of the compounds above
O=C(Nc1cccc([N+](=O)[O-])c1)C1C2CC/C=C\CCC21 (centres undefined)
  ALR inh = -3 | LANA-H2A inh = 0.7 | HNF4A DNA FP = 5.1 | RanGTP-Imp inh = -6.5 | Vif A3G = / | Calb FLC = 4 | B2AR ag = -6
COc1ccc(CNC(=S)N2CCN(S(=O)(=O)c3cccc(F)c3)CC2)cc1
  ALR inh = -3 | LANA-H2A inh = -7.2 | HNF4A DNA FP = 2.4 | RanGTP-Imp inh = 2.5 | Vif A3G = 13% | Calb FLC = -4 | B2AR ag = 4

The results go on:
SMILES | ALR inh | LANA-H2A inh | HNF4A DNA FP | RanGTP-Imp inh | Vif A3G | Calb FLC | B2AR ag
CCCCc1ccc(NC(=O)CC(C)=O)cc1 | 21 | 5.0 | 1.4 | -0.5 | -3% | -18 | -3
CCCC(=O)N1CCN(Cc2nc3cc([N+](=O)[O-])ccc3n2C)CC1 | -6 | 12 | 5.3 | 1.3 | 2% | 6 | 3
O=C(CSc1cccc2cccnc12)Nc1cccc(S(=O)(=O)N2CCOCC2)c1 | -3 | 3.6 | 0.1 | -1.9 | ? | 1 | 3
Nc1cccc2cc(S(=O)(=O)O)ccc12 | / | / | -27 | / | 35µM* | / | 2
Cc1[nH]n(C)c(=O)c1C(=O)c1c(-c2c(Cl)cccc2Cl)noc1C | / | 3.7 | -2.5 | -2.0 | -7% | 3 | 11
COC(C[C@H]1O[C@H]1[C@@H](O)COCc1ccccc1)OC | / | / | -0.1 | -1.5 | -6% | -3 | -1
O=C(c1ccccc1F)N1CCCC(c2ccccc2)C1 (centres undefined) | -6 | 2.1 | 2.0 | 3.4 | / | 0 | -1
O=Cc1s/c(=N\S(=O)(=O)c2ccccc2)n(CCCCl)c1Cl | / | / | 1.6 | ? | 17% | -18 | 104*
CCN(CC)CCN1C(=O)c2ccccc2NC1c1cccc(F)c1 (centres undefined) | -2 | -3.6 | 4.1 | 4.6 | 4% | 23 | -3
COc1ccc2cc(C(C)C(=O)Nc3cccc(S(=O)(=O)N(C)C)c3)ccc2c1 (centres undefined) | -3 | -3.1 | 3.0 | ? | / | -10 | 2
COC(=O)c1cn(NC(=O)C2CCC(C(C)(C)C)CC2)c(=O)c2ccccc12 (centres undefined) | 2 | -2.2 | 1.9 | / | 9% | / | 14
CCOc1ccc(S(=O)(=O)N(C)CC(=O)NCCN2CCOCC2)cc1 | 2 | 3.2 | -0.3 | -0.2 | / | -2 | 2
C/C(CC(=O)Nc1cccnc1)=N\NC(=O)c1ccc([N+](=O)[O-])c(Cl)c1 | -7 | -0.1 | 3.9 | 1.1 | 6% | -7 | 7
CC(C)C(=O)Nc1nnc(CCN2CCOCC2)s1 | -1 | 18* | 1.3 | -0.7 | 4% | -30 | -8
CCCC[C@@H]1C=C(C(=O)O)[C@H](c2ccc(CC)cc2)N1S(=O)(=O)c1ccc(C)cc1 | / | / | 5.0 | / | 7% | / | 4
CC(C)[C@@H](C(=O)N1CCNCC1)n1cc(CCO)nn1 | -3 | -2.2 | 3.7 | 2.7 | / | 4 | -8
O=C(CCNC(=O)C1CCN(S(=O)(=O)c2ccccc2)CC1)NCc1ccc(Cl)cc1 | -3 | 3.4 | 0.2 | 1.7 | / | 2 | -2
CCOC(=O)C1CCN(C(=O)Cn2ncc3c([nH]c4ccccc43)c2=O)CC1 | -9 | 1.3 | -5.9 | -1.6 | / | 18 | 4
